Source: PubChem (National Center for Advancing Translational Sciences (NCATS))
gsp antag: qHTS for Antagonists of gsp, the Etiologic Mutation Responsible for Fibrous Dysplasia/McCune-Albright Syndrome: qHTS. gsp-mutant cells, cAMP HTRF, 30 min; control for the full effect not named in the record. Potency, µM (series often up to 76.9 µM), inactives show top-dose activity change, negative = inhibition, hits mostly inhibitors. hit rate 0.4% among 340,000; active = falling curve of any shape with a large fitted effect; inconclusive = falling curve, mostly with a smaller effect; inactive = flat or rising curve; cell line not stated here;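 also: intracellular cAMP measured with PDE inhibitor Ro 20-1724 present during compound exposure; potency is read from the fitted curve at half-maximal effect; % is scaled to controls: 0 for no effect and ±100 for the full control effect; nearly all actives have a fitted effect of over 65% in size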
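Measurement of cellular cAMP by homogeneous time-resolved fluorescence following a 30 min compound exposure at 37C. The PDE inhibitor […] was present throughout; the assay buffer was DPBS with 0.05% BSA and 0.005% Tween 20.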
Menin-MLL FL inh: qHTS Assay for Inhibitors Targeting the Menin-MLL Interaction in MLL Related Leukemias: Competition With Fluorescein Labeled MLL-derived Peptide. AID 1766, 2009. Fluorescence polarization, fluorescein-MLL peptide displacement from menin. FP activity change, % at 61.4 µM. 290,000 tested, under 10 active; inconclusive = falling polarisation curve, or a change in total fluorescence; inactive = total fluorescence flat and polarisation flat or rising; no compound was filed as active; the % refers to the polarisation; negative = inhibition;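 also: % of control where 0% means no effect; inhibitors lower the polarisation; unlabelled MLL peptide was the positive control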
Sfp inh: qHTS Assay for Inhibitors of Bacillus subtilis Sfp phosphopantetheinyl transferase (PPTase). Potency, µM, inactives show max response, negative = inhibition, most hits filed as inhibitors. Biochemical Sfp PPTase activity, qHTS. AID 1490, 2009. 4'-phosphopantetheinyl transferase ffp (Bacillus subtilis), Q9F4F7. hit rate 3.5% among 310,000; active = well fitted inhibition curve with a large enough effect; inconclusive = small, poorly fitted or top-dose-only effect, or another doubt; inactive = no such curve, though single readings can be large or run the other way;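 also: the enzyme is Sfp with the accession as filed and its product quenches rhodamine fluorescence; potency is read from the fitted curve at half-maximal effect; 0% = enzyme reaction without inhibitor and -100% = no enzyme wells; top concentration of the series not given in the record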
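Fluorescence-quenching assay with 15 nM Sfp, 5 uM rhodamine-CoA and 12.5 uM BHQ-2-labelled ybbR peptide in pH 7.6 Hepes/MgCl2 buffer. Enzyme was pre-incubated with compound for 15 min at room temperature. Rate was taken from the 30-min fluorescence change (525/598 nm).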
TRPV1 PAM: HTS Assay for Compounds that Act as Potentiators of the Vanilloid Receptor 1; TRPV1-expressing cells, Fluo-8 calcium influx, capsaicin EC20 potentiation; host cell line not named in the record; control for the full effect not named in the record; potentiation, % at 8.33 µM; hit rate 0.02% among 320,000; AID 540277, 2011; active means potentiation above 80%; inconclusive means 30% to 80%; inactive means below 30%; also: 0% is about no effect
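Fluo-8 calcium influx in TRPV1-expressing cells, kinetic read (ex 480/em 520 nm). Compound added and read 3 min for agonist activity, followed by capsaicin at EC20 final and 2 min further read for enhancement.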
D2 potentiator: Beta-Arrestin HTS for Positive Allosteric Modulators of the Human D2 Dopamine Receptor: Potentiators; D(2) dopamine receptor (Homo sapiens), P14416; DiscoveRx D2 beta-arrestin cells, luminescence, 90 min; 100% = 57 uM dopamine signal; potentiation, % (test concentration not listed); hit rate 0.23% among 360,000; active = potentiation of 50% or more; inconclusive = 30% to 50%; inactive = 30% or less;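 also: compound concentration not given in the record; tested on top of an EC20 dose of dopamine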
Target sequence (P14416 whole entry, looked up): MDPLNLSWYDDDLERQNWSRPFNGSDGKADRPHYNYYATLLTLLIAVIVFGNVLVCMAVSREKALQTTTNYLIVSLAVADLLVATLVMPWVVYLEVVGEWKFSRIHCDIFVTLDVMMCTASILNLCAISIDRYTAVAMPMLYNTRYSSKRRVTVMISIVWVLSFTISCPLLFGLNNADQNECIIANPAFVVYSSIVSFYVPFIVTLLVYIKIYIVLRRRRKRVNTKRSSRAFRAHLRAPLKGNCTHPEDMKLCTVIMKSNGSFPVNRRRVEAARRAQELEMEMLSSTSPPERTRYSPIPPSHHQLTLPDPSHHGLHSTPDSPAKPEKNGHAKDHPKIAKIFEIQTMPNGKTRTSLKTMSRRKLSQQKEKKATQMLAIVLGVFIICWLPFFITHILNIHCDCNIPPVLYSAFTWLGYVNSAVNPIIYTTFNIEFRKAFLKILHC
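D2 cells co-treated with compound plus 50 nM dopamine (EC20) for 90 min at 37 deg C to detect potentiation. Beta-arrestin recruitment was read as enzyme-fragment luminescence after 1 h at ambient temperature. Full response was set by 57 uM dopamine.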
ClpP mod: qHTS Assay for Activators of ClpP; purified B. subtilis ClpP, FRET peptide cleavage, 20 min; Potency, µM (series often up to 57.5 µM), for the others: top-dose activity change, negative = active; hit rate 1.9% among 340,000; AID 651965, 2013; active = well fitted falling curve with a large enough effect; inconclusive = small, poorly fitted or top-dose-only effect; inactive = no such curve, though single readings can be large or run the other way; also: potency is read from the fitted curve at half-maximal effect; the source files actives as falling curves though it sought activators and does not explain the sign; nearly all actives have a fitted effect of over 65% in size; many hits overshoot -100%
Target sequence (P80244 whole entry, looked up): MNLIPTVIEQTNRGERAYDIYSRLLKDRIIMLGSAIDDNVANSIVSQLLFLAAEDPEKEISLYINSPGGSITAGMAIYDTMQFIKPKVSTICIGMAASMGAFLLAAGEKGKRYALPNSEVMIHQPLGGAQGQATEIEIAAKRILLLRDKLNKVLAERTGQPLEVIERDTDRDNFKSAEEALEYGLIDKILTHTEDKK
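Purified B. subtilis ClpP, 10 microg/mL final in Tris/HCl pH8 with KCl, BSA, glycerol and Tween-20, cleaved an Abz/nitrotyrosine-quenched decapeptide. Fluorescence (ex 320, em 430) was read at 0 and 20 min at room temperature. Delta was normalized to 5.8 microM ADEP and DMSO/no-enzyme controls.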
gsp agonist: qHTS for Agonist of gsp, the Etiologic Mutation Responsible for Fibrous Dysplasia/McCune-Albright Syndrome: qHTS | gsp mutant cells, cAMP HTRF, 30 min; control for the full effect not named in the record | Potency, µM (top dose mostly 76.9 µM), for inactives: at the top dose activation (cAMP increase), actives largely listed as activators | hit rate 0.13% among 340,000 | AID 624287, 2012; active = well fitted activation curve with a large enough effect; inconclusive = small, poorly fitted or top-dose-only effect, or another doubt; inactive = no such curve, though single readings can be large or run the other way; cell line not stated here;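 also: phosphodiesterase inhibitor Ro 20-1724 added with compounds to block cAMP breakdown; potency is read from the fitted curve at half-maximal effect; nearly all actives have a fitted effect of over 60% in size; about a fifth of the inactives were tested at one dose only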
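Cells in DMEM/10% FBS with G418 were pretreated with compounds in DMSO plus […] (300 uM stock) for 30 min at 37C. cAMP was measured by HTRF (cAMP-d2 plus anti-cAMP antibody-K) after 30 min at room temperature.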
The depositor's hits bear a star; ? = inconclusive; nt = no result given; & = joins results of further samples; [ ] = remark or other dose. An unsorted share of the library; overall some 5.1% were active at least once.

Second line of a record – gsp agonist, Menin-MLL FL inh, Sfp inh, gsp antag, ClpP mod, D2 potentiator, TRPV1 PAM
> COc1ccc(C(=O)NCCS(=O)(=O)N2CCc3ccccc3C2)c(OC)c1
 : -14%[15.4 µM], nt, nt, -6%, nt, -3, 2
> O=C(COC(=O)CN1C(=O)c2ccccc2C1=O)NC1CCCCC1
 : ?, 1.2, 7%, -15%, -0.8%, -2, 1
> COCC(=O)N(Cc1ccccc1)c1ccccn1
 : -7%, 4.7, 8%, 3%, -1.7%, 11, -22
> CC(C)Cn1c(=O)c2c(nc3n2CC(C)CN3Cc2ccccc2)n(C)c1=O (stereo not given)
 : -31%[inhibitor], -0.7, 16%, -12%, 0.1%, -5, 7
> CN(C(=O)c1ccc(NC(=O)C2CCCN(C(=O)OC(C)(C)C)C2)cc1)C1CCC1 (stereo not given)
 : -16%, nt, nt, -16%, 0.2%, -10, nt
> O=C(CSc1nncc2ccccc12)Nc1ccc(C(=O)O)cc1
 : -6%, nt, 50µM*, -1%, -2.6%, -18, -20
> COc1cc(C(=O)OCC(=O)Nc2ccc3c(c2)OC(F)(F)O3)ccc1OCc1c(C)noc1C
 : 16%, 0.8, 3%, -20%, -12%, -1, 19
> CCCn1nc(C(=O)OCc2nc(N)nc(Nc3ccccc3C)n2)c2ccccc2c1=O
 : -9%, nt, nt, 8%, -0.5%, -10, 9
> CCn1c(COc2ccccc2OC)nnc1SCC#N
 : -28%, 2.9, 11%, -8%, 1.8%, -10, -2
> Cc1cc(NC(=O)COC(=O)CNC(=O)c2cccs2)c([N+](=O)[O-])cc1C
 : -59%[inhibitor], nt, nt, -2%, -2.4%, 14, -9
> Cc1ccc(OCCN2CCN(C(=O)CCC(=O)Nc3nnc(CC(C)C)s3)CC2)cc1
 : -2%[15.4 µM], 2.4, -1%, 0%, nt, -13, 3
> COc1cccc(CN(C)C(=O)c2cc(-c3ccc(OC)c(OC)c3)nc3ccccc23)c1
 : -6%, nt, 2%, 2%, ?, 25, ?
> C[C@H]1CN([C@@H](C)CO)S(=O)(=O)c2ccc(C3=CCCC3)cc2O[C@@H]1CN(C)C(=O)C1CCCCC1
 : -79%, nt, nt, nt, -4.9%, -16, nt
> O=C(NCc1ccc2c(c1)OCO2)C1CCCN1C(=O)Nc1cccc(F)c1 (stereo not given)
 : -8%, -0.7, 5%, -7%, -2.4%, -31, 3
> CCCc1cc(Nc2ccccc2)n2ncnc2n1
 : 17%, -6.2, 3%, -4%, 1.3%, 4, -1
> Cc1ccn2c(NC3CCCC3)c(-c3ccsc3)nc2c1
 : 24%[15.4 µM], 10, 0%, 1%, nt, -4, -11
> CCOc1cccc(NC(=O)Cn2nc(-c3ccc4c(c3)OCCO4)ccc2=O)c1
 : 4%, -5.4, 15%, -2%, 149%, -6, 6
> CC(C)NC(=O)Cn1cc(C#N)c2cc(Br)ccc21
 : -5%, 3.4, 3%, 7%, -0.8%, -9, -3
> ON(Cc1c(F)cccc1Cl)Cc1c(F)cccc1Cl
 : 8%, -2.8, -2%, 11%, 0.3%, -18, -7
> O=C(NCc1ccco1)c1ccc2c(c1)N(Cc1ccccc1)C(=O)CS2=O (stereo not given)
 : -31%[inhibitor], 3.0, 23%, -16%, -0.7%, 0, 14
> Cc1cc(NC(=O)CSc2nc3ccccc3c(=O)n2Cc2ccc(F)cc2)no1
 : ?, 0.1, ?, 12%, 2.0%, -12, -3
> O=C(O)C1Nc2c(Cl)cc(Cl)cc2C2C=CCC12 (stereo not given)
 : -32%[inhibitor], ?, ?, 0%, nt, -2, 3
> N#CC(c1cccc(C(F)(F)F)c1)(c1ncc(C(F)(F)F)cc1Cl)N1CCOCC1 (stereo not given)
 : -33%[inhibitor], -3.2, 17%, -13%, 0.5%, -26, -8
> CC1CCN(C(=O)CN(c2ccc(Cl)c(C(F)(F)F)c2)S(C)(=O)=O)CC1
 : -7%, 1.3, 19%, -14%, -4.4%, 0, ?
> CC(=O)c1ccc(OCCNS(=O)(=O)c2ccc(-n3cnnn3)cc2)cc1
 : -15%, 3.6, 10%, -26%, -1.8%, 2, 2
> CCN(CC)CCCn1c2c(c(SCC(=O)Nc3ccc4c(c3)OCO4)nc1=O)CCC2
 : 28%, nt, nt, -17%, 0.5%, -21, 2
> C=CC[C@@H](CC(=O)N(CCO)Cc1ccccc1)C(=O)N[C@@H](COC(=O)[C@@H](CC=C)Cc1ccc(F)cc1)Cc1ccccc1
 : 2%, nt, nt, ?, 1.3%, 7, nt
> COc1ccccc1/C=C/CN1CCCC(CCC(=O)NCc2ccccc2F)C1 (stereo not given)
 : -16%, -0.4, 6%, 4%, -3.7%, -29, 10
> CC1(C)S[C@@H]2[C@H](NC(=O)COc3ccccc3)C(=O)N2C1C(=O)OCc1ccccc1 (stereo not given in full)
 : nt, nt, nt, -3%, -3.1%&-1.2%, -40, nt
> CCc1ccc(NC(=O)Cn2ncc3c4ccccc4n(C)c3c2=O)cc1
 : 19%, 4.0, 14%, -9%, -9.0%&-11%, -5, nt
> COc1ccc(S(=O)(=O)N2CCOCC2)cc1NC(=O)COC(=O)CC1CC2CCC1C2 (stereo not given)
 : ?, nt, nt, -5%, nt, -5, nt
> CC(=O)OCCNc1cc(N2CCN(C)CC2)c2noc3c2c1C(=O)c1ccccc1-3
 : -2%, ?, 4%, -26%, 0.3%, -3, 17
> COc1ccc(-c2nnc(CSc3nc4ccccc4c(=O)n3C)o2)cc1OC
 : 13%, 2.8, -18%, 8%, -3.8%, -8, 0
> COC(=O)c1ccc(/C=C/C(=O)O)cc1
 : 6%, -6.9, 17%, -5%, 0.4%, -12, -3
> COc1ccc(S(=O)(=O)N2CCN(C(=O)CCC3CCCC3)CC2)cc1
 : -31%[inhibitor], 0.2, 10%, -5%, 1.2%, 16, -1
> CCOC(=O)C1=C(O)C(Nc2nccs2)(C(F)(F)F)N=C1C (stereo not given)
 : -30%[inhibitor], -11, -17%, 0%, 0.5%, -10, nt
> CN1C(=O)NC(NS(=O)(=O)c2ccc(N)cc2)(C(F)(F)F)C1=O (stereo not given)
 : 7%[15.4 µM], 5.0, -3%, 8%, nt, -2, ?
> O=C(NCc1ccccc1Cl)C1=CC=CN2CCS(=O)(=O)N=C12
 : 18%, nt, nt, 7%, 3.6%, -2, -14
> CCCCN(C)C(=O)C1CCN(Cc2cccnc2)CC1
 : -24%, -0.9, -17%, -10%, nt, 0, -23
> CC(C)(C)CC(C)(C)NC(=S)NC1CCN(Cc2ccccc2)CC1
 : -14%, 3.3, 7%, 7%, -1.1%, -44, -10
> O=[N+]([O-])c1ccc(CS(=O)Cc2ccccc2)cc1 (stereo not given)
 : 5%, nt, nt, 11%, 1.6%, -17, nt
> NC(=S)c1ccc(C(N)=S)o1
 : -4%, -1.6, 56µM*, -9%, -2.0%, -14, -1
> COc1ccc(C(=O)Nc2ccc(C(=O)OCC(=O)c3cccc4ccccc34)cc2)cc1
 : 3%, 0.0, -3%, -11%, -1.8%, -17, 0
> COc1ccccc1N1C(=S)N=C(Nc2c(C)cccc2C)C12CCCC2
 : 0%, 0.7, 10%, -9%, nt, 3, nt
> O=C(O)C1Sc2[nH]c(=O)sc2C2c3cc(Br)ccc3OC(=O)C12 (stereo not given)
 : -2%[15.4 µM], ?, ?, -6%, nt, -5, -19
> CC12CN(NC(=O)c3ccccc3F)C3(C#N)CC1CCC23C (stereo not given)
 : 12%[15.4 µM], -2.7, 23%, -39%, nt, 3, 1
> CC1CC1c1ccc(/C=C(\C#N)C(=O)Nc2ccc(Cl)cc2Cl)o1 (stereo not given)
 : 8%, ?, 56µM*, 6%, 0.4%, -26, -11
> Cc1cc(=O)n2nc(N3CCCC3C(=O)NCCCN3CC(C)CC(C)C3)sc2n1 (stereo not given)
 : 2%, 3.6, 2%, 5%, -4.0%, -44, 8
> CCCCN(C(=S)NC(=O)c1ccccc1)c1c(N)n(Cc2ccccc2)c(=O)[nH]c1=O
 : ?, -0.1, 6%, 5%, -2.8%, -6, 2
> COc1ccc(NC(=O)c2nn(C)cc2[N+](=O)[O-])cc1
 : -20%, 5.3, 7%, 2%, -3.0%, -9, -3
> COC(=O)c1ccc(S(=O)(=O)c2ccc(C(=O)OC)s2)s1
 : 18%, 0.5, 4%, -4%, -0.5%, -4, 0
> CCN(CC)c1ccc(NC(=O)c2cc(OC)cc(OC)c2)c(C)c1
 : -31%[inhibitor], 2.0, 5%, 16%, -2.2%, -16, 10
> Oc1ccc(Br)cc1C=Nc1ccc2[nH]ncc2c1
 : -18%[15.4 µM], 2.7, -1%, -10%, -8.9%, 1, 4
> Cc1nc(C)c(-c2ccc(SCC(=O)Nc3ccc(C)c(Cl)c3)nn2)s1
 : 5%[15.4 µM], nt, 12%, ?, -2.2%, 4, 2
> O=C(NCCCn1ccnc1)C(=O)NCC1OCCCN1S(=O)(=O)c1ccc(F)cc1 (stereo not given)
 : 5%, -2.1, 22%, 43%[activator], -0.4%, -10, 7

Entries of single compounds, quoted from the list. Values in the order: gsp agonist, Menin-MLL FL inh, Sfp inh, gsp antag, ClpP mod, D2 potentiator, TRPV1 PAM
Record of Cc1nc(C)c(-c2ccc(SCC(=O)Nc3ccc(C)c(Cl)c3)nn2)s1 = 5%[15.4 µM], nt, 12%, ?, -2.2%, 4, 2
Record of Cc1cc(=O)n2nc(N3CCCC3C(=O)NCCCN3CC(C)CC(C)C3)sc2n1 (stereo not given) = 2%, 3.6, 2%, 5%, -4.0%, -44, 8
Record of O=[N+]([O-])c1ccc(CS(=O)Cc2ccccc2)cc1 (stereo not given) = 5%, nt, nt, 11%, 1.6%, -17, nt
Record of COC(=O)c1ccc(S(=O)(=O)c2ccc(C(=O)OC)s2)s1 = 18%, 0.5, 4%, -4%, -0.5%, -4, 0
